N370S GC mod: inhibits or activates N370S mutant glucocerebrosidase | N370S GC spleen homogenate, 4MU-glucoside fluorescence | P04062 | Potency, µM (series often up to 59.4 µM), for inactives: top-dose activity change, negative = inhibition, hits mostly inhibitors | 330,000 tested, 0.092% active;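 further: 0% = full enzyme activity and -100% = no enzyme basal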
FEN1 inhibitor: inhibitors of human flap endonuclease 1. P39748. Recombinant FEN1 flap cleavage, fluorescence, 15 min. Potency, µM (titrated, usually from 114 µM), for inactives: at the highest dose activity change, negative = inhibition, most hits filed as inhibitors. 390,000 tested, 0.35% active. AID 588795; further: nearly all actives have a fitted effect of over 65% in size
Target sequence (P39748 whole entry, looked up): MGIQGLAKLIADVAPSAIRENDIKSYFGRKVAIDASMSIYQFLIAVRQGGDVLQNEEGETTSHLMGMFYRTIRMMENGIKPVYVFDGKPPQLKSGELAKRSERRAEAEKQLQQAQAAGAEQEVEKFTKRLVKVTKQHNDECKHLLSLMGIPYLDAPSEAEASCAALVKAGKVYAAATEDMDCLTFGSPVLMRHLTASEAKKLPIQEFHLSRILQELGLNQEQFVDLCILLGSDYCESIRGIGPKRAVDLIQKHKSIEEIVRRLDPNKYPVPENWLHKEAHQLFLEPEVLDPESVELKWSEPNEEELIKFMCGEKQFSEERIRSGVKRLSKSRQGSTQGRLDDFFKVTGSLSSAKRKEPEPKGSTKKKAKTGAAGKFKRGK
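Reaction started by adding substrate (50 nM final) to 10 nM enzyme after 15 min room-temperature compound preincubation. Reads at 0 and 15 min, with data normalized and fitted to a four-parameter Hill equation.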
* marks the source's active call; other numbers are inactive results; ? = inconclusive; . = no result given; & = joins results of further samples; [ ] = another dose, or the depositor's remark. The call rests on the fitted dose curve; in most records, active means well fitted curve in the direction sought with a large enough effect; inconclusive means small, poorly fitted or top-dose-only effect, or another doubt; inactive means no such curve, though single readings can be large; an effect the other way counts as inactive or inconclusive. Unless noted, on the % scale 0 is the no-effect control and ±100 the full control effect; potency means the concentration at half of the fitted maximal effect.

SMILES	N370S GC mod	FEN1 inhibitor
CN(C(=O)c1ccc(NC(=O)Cc2cccc(NC(=O)C3CCN(C(=O)c4ccccc4)CC3)c2)cc1)C1CCCC1	.	17%
Oc1ccc2nc(Cc3ccccc3)[nH]c2c1	0%	0%
OCC1(CO)COC(/C=C/c2ccccc2)=N1	-12%	-14%
COc1ccc(C(=O)c2ccc(O)cc2)c(O)c1O	-29%	.
CCSC1=NC2(CCCCC2)Nc2sc3c(c21)CCCC3	3%	-2%
Fc1cc(F)c2nc(Nc3nc4c(F)cccc4s3)sc2c1	3%	-3%
COc1cc(NC(=S)Nc2ccc(Br)cc2Cl)c(OC)cc1Cl	12%	6%
COc1ccc(OC)c(C2C(C(=O)Nc3ccccc3OC)=C(C)Nc3nc(CCCO)nn32)c1 (configuration not stated)	9%	-1%
CC(C)NC(=O)/C(=C/c1ccco1)c1ccccc1	6%	2%
CCOC(=O)C(Cc1cc(C(C)=O)ccc1OC(C)C)C(=O)OCC	-5%	1%
COC(=O)CSc1nnc(-c2ccccc2OC)n1-c1ccc(C)cc1	2%	-5%
CC(NC(=O)CNC(=O)c1ccccc1F)c1ccc(-n2ccnc2)cc1 (configuration not stated)	.	-6%

Arranged by value in N370S GC mod (largest number first): three of the compounds above
Molecule,N370S GC mod
CC(C)NC(=O)/C(=C/c1ccco1)c1ccccc1,6%
OCC1(CO)COC(/C=C/c2ccccc2)=N1,-12%
COc1ccc(C(=O)c2ccc(O)cc2)c(O)c1O,-29%

Going on with the list:
SMILES	N370S GC mod	FEN1 inhibitor
Cc1cccc(C(=O)N2CCCC(Nc3ccc(C(C)C)cc3)C2)n1 (configuration not stated)	-6%	-7%
O=S(=O)(c1ccc2ccccc2c1)N1CCN(C(=S)Nc2ccc(F)cc2)CC1	-2%	6%
CCOC(=O)C1=CN(Cc2cccc(F)c2)S(=O)(=O)NC1c1ccc2ccccc2c1 (configuration not stated)	.	1%
COc1ccc(-n2ncc3c(N4CCN(Cc5ccccc5)CC4)ncnc32)cc1	-1%	0%
O=C(Cn1cnc2ccccc2c1=O)Nc1nnc(C2CC2)s1	3%	-1%
CCOC(=O)N1CCC(=NNc2nc(C)cc(=O)[nH]2)CC1	-1%	12%
COc1c(C)c2c(c(O)c1C/C=C(\C)CCC(=O)O)C(=O)OC2	-4%	-13%
CCOC(=O)CN1Cc2cccc(C(=O)O)c2C1=O	4%	22%
CCN(CC)CCCNC(=S)Nc1ccc(Br)cc1	-11%	20%
CCOC(=O)c1c(C)n(C)c2ccc(OC)c(NC(=O)CN3CCN(C(=O)c4ccco4)CC3)c12	10%	26%
CC1Cn2c(CCc3ccccc3)nnc2S1 (configuration not stated)	14%	8%
Cc1cc(C)n2nc(CNS(=O)(=O)c3c(F)c(F)c(F)c(F)c3F)nc2n1	-9%	16%
Cn1c(=O)c2c(nc(-n3ccnc3)n2Cc2ccc([N+](=O)[O-])cc2)n(C)c1=O	22%	2%
Cc1ccc(S(=O)(=O)NNC(=O)c2c(O)c3ccccc3[nH]c2=O)cc1	2%	14%
O=C(Cn1nnc(-c2ccccc2F)n1)Nc1ccc2c(c1)OCCO2	-17%	-4%
Cc1cc(C)n2nc(N)c(N=Nc3ccc(Cl)cc3)c2n1	1%	12%
COc1cccc(C(=O)NNC(=O)Cc2ccc(Cl)cc2)c1	-25%	19%
Cc1ccc(S(=O)(=O)N2[C@@H](c3cccc(Cl)c3)C(C(=O)O)=CC[C@H]2c2cccc(Cl)c2)cc1	-1%	-13%
O=C(O)CCC(=O)N1CCc2cc(S(=O)(=O)N(CCc3ccccc3)Cc3ccccc3)ccc21	-2%	-5%
CN(C)/N=N\c1nc[nH]c1C(N)=O	-2%[21.6 µM]	.
CC1CCN(C(=O)CNC(=O)c2ccc(Br)o2)CC1	.	4%
COc1ccc(Cc2nnc(SCC(=O)Nc3ccccc3)[nH]c2=O)cc1	-2%	6%
O=C(C1CCCCC1)N1CCCn2c1nc1ccccc12	-1%	-12%
O=C(COC(=O)c1cccc(F)c1)Nc1ccc(Cl)cn1	.	0%
CCC(C)c1ccc(S(=O)(=O)N2CCN3CCCC3C2)cc1 (configuration not stated)	0%	1%
Cc1ccc(S(=O)(=O)N2[C@@H](c3cccc(Cl)c3)C(C(=O)O)=CC[C@H]2c2ccc(Cl)cc2)cc1	-11%	-26%
O=C(Cc1ccccc1)NN1C(=O)C2C3C=CC(C3)C2C1=O (configuration not stated)	0%	3%
CC(C)CC(=O)Nc1nnc(S(=O)(=O)N2CCCCCC2)s1	4%	-5%&9%
O=C(CSc1nnc(NC(=O)c2cccc(Cl)c2)s1)NCC1CCCO1 (configuration not stated)	-1%	6%
O=S(=O)(Nc1cccc(S(=O)(=O)N2CCCC2)c1)c1cccc(Br)c1	.	-9%
NS(=O)(=O)c1cc(C(=O)O)c(NCc2ccco2)cc1Cl	-5%	-3%
Cc1cc(NC(=O)CN2C(=O)NC3(CCCCC3C)C2=O)no1 (configuration not stated)	14%	0%
COCC(C)n1c(C)cc(C(=O)COC(=O)c2c(NC(C)=O)sc(C)c2C)c1C (configuration not stated)	4%	-2%
CN[C@H](C(=O)NC[C@H]1O[C@@H](n2cnc3c(N)ncnc32)[C@H](O)[C@@H]1O)[C@@H](C)OCc1ccccc1	.	-13%
C/C(N)=C(/C#N)C(=O)COC(=O)CCS(=O)(=O)c1ccccc1	11%	-1%
O=C(N/N=C/c1ccco1)c1cc(=O)[nH]c2ccccc12	-11%	-13%
O=S(=O)(/N=C(/c1ccccc1)N1CCOCC1)c1ccc(F)cc1F	.	0%
CN(C)c1ccc(NC(=O)/C=C/c2c(Cl)cccc2Cl)cc1	3%	1%
CCOC(=O)c1c(NC(C)=O)sc2c(O)c(Br)ccc12	1%	-8%
O=C(COC(=O)c1ccc(S(=O)(=O)Nc2ccccc2)cc1)NCC1CCCO1 (configuration not stated)	-8%	-8%
O=C(NCCCN1CCN(c2ccc(F)cc2)CC1)c1cccc(N2CCCC2=O)c1	7%	7%
CCOC(=O)N1CCN(c2ccc(C(=O)c3ccccc3)cc2F)CC1	5%	-2%
CCOc1ccc2nc(N3CCCC(C(=O)NCCc4ccc(OC)cc4OC)C3)sc2c1 (configuration not stated)	.	1%
CC(=O)OCc1cc2cccc(C)c2[nH]c1=O	3%	-5%
CCOC(=O)CN1C(=O)N[C@@H](c2cccs2)C(C(C)=O)=C1C	1%[12.8 µM]	-3%
COc1ccc(Cl)cc1NC(=O)CS(=O)(=O)c1cccc2nsnc12	12%	1%
O=c1cc(N2CCOCC2)[nH]c(=O)n1-c1ccc(Br)cc1	4%	-7%
O=C(Oc1ccc2ccc(O)cc2c1)C1CCCCC1	-10%	-12%
Cc1ccc(NC(=O)C2=CC(c3cccs3)=NS(=O)(=O)N2C)cc1	-1%	4%&-10%
CCOc1ccccc1NC(=O)CN1CCCN(Cc2cccc(Cl)c2)S1(=O)=O	.	-17%
Cc1cccc(N2CCN(Cc3nc(-c4ccc(F)cc4F)oc3C)CC2)n1	-2%	-6%
C#CCn1c(=NC(=O)CN2C(=O)CCC2=O)sc2cc(S(N)(=O)=O)ccc21	-4%	-2%
CC(C)N(Cc1ccccc1)C(=O)CCS(=O)(=O)c1ccc2c(c1)oc(=O)n2C	-4%	2%&11%
COc1cc(Cl)c(S(=O)(=O)NCCN2CCOCC2)cc1Cl	3%	3%
Cc1ccc(OCC(=O)Nc2nnc(SCc3cc(=O)n4cccc(C)c4n3)s2)cc1	.	-4%
Cc1ccccc1-c1nnc(SCC(=O)N(C)C2CCS(=O)(=O)C2)n1C (configuration not stated)	.	15%
CCOc1ccccc1NC(=O)c1nc(S(=O)(=O)Cc2ccccc2)ncc1Cl	0%	4%
O=C(NCc1nc(-c2ccccc2)cs1)c1ccccc1	8%	-3%
COc1ccc(NCc2nnc(SCC(=O)NNC(=O)c3ccc(C)cc3)n2C)cc1	6%	-4%
Cc1oc(-c2ccc(Cl)cc2)nc1CN1CCC(C(=O)NCCCN2CCCC(C)C2)CC1 (configuration not stated)	-8%	-2%

Later entries.
SMILES	N370S GC mod	FEN1 inhibitor
CCC(Oc1ccccc1)C(=O)Nc1ccc(C)c(S(=O)(=O)N2CCOCC2)c1 (configuration not stated)	-5%	-4%
COc1cccc(N2CC(=O)N(NC(=O)CSc3nc(C)cc(C)c3C#N)CC2=O)c1	-6%	-4%
Cc1nc(C2CC(=O)OC23CCCCC3)cs1 (configuration not stated)	-16%	-3%
O=C(CSc1ccccc1[N+](=O)[O-])NC1CCS(=O)(=O)C1 (configuration not stated)	6%	0%
CCCC[n+]1ccn(-c2nc3ccccc3nc2[N-]S(=O)(=O)c2ccc(C)cc2)c1	?	5%
CC(=O)Nc1ccc(-n2c(C)nc(=O)c(-c3ccccc3)c2C)cc1	2%	-3%
COc1cc(OC)c(OC)cc1/C=C/c1nc2cc3ccccc3cc2c(=O)n1-c1ccc(F)c(Cl)c1	.	-1%
CCN(CC)CCN(C(=O)c1ccc(C(C)=O)cc1)c1nc2ccc(Cl)cc2s1	-10%	12%
Cc1ccc(C2=[N+]([O-])C3(CCCCC/C3=N\NC(N)=O)N(O)C2(C)C)o1 (configuration not stated)	1%	4%
Cc1ccc(SCC(=O)Nc2ccccc2C(=O)O)cc1	-2%	-1%
O=C(CCn1c(=O)sc2ccccc21)NCc1ccc2c(c1)OCO2	6%	-3%
O=C1N=C(N2CCOCC2)SC1=C1CCCCC1	13%	4%
CN1CCN(Cc2cn(C)nc2-c2ccccc2F)CC1c1ccccc1 (configuration not stated)	5%	29%
Clc1ccc(-c2cc(-c3ccccn3)on2)c(Cl)c1	4%	-17%
Cc1ccc(NC(=O)C2CCN(C(=O)NC3CCCCC3)CC2)cc1	0%	-4%
Cc1cc(F)ccc1NC(=O)c1ccc2nc(Cc3ccccc3)oc2c1	.	-2%
CCOc1ccc(NS(=O)(=O)c2cc(NC(=O)CCS(=O)(=O)c3ccc(C)cc3)ccc2OC)cc1	-9%	-13%
COc1ccc(C)cc1-n1nnnc1SCc1csc(C)n1	-1%	-8%
CC(=O)c1c(C)n(CC(=O)NCc2ccco2)c2ccccc12	-3%	20%
COc1cccc(NC(=O)Nc2ccc3c(c2)CCC3)c1	3%	-2%
COC(=O)[C@H]1[C@@H](C)N(CCc2cc(OC)c(OC)c(OC)c2)C(=O)N[C@H]1c1ccccc1	-13%[12.8 µM]	15%
CCCOc1ccc(NC(=O)c2c(-c3ccccc3)noc2C)cc1	1%	13%
O=C(COC(=O)c1ccc2[nH]c3c(c2c1)CCCC3)Nc1ccccc1	1%	-7%
COc1ccc(C2C(C#N)=C(N)Oc3n[nH]c(C)c32)cc1Cn1nnc2ccccc21 (configuration not stated)	27%	-12%

Part of the list above, set out differently:
Values in the order: N370S GC mod	FEN1 inhibitor
- CCCOc1ccc(NC(=O)c2c(-c3ccccc3)noc2C)cc1
    1%	13%
- O=C(COC(=O)c1ccc2[nH]c3c(c2c1)CCCC3)Nc1ccccc1
    1%	-7%
- COc1ccc(C2C(C#N)=C(N)Oc3n[nH]c(C)c32)cc1Cn1nnc2ccccc21 (configuration not stated)
    27%	-12%

(more compounds)
SMILES	N370S GC mod	FEN1 inhibitor
CN(C)S(=O)(=O)c1cccc(NC(=O)COC(=O)[C@H](Cc2ccccc2)NC(=O)c2ccco2)c1	.	-13%
CCc1ccc(NC(=O)C2CC=CCC2C(=O)O)cc1 (configuration not stated)	9%	-3%
Cc1cccc(NC(=O)COC(=O)Cc2cccs2)c1C	0%	-7%
CCOc1ccc(Br)cc1CN(CC)CC	28%	1%
Cn1cc(C(=O)NCc2ccccc2)c(=O)c2cc(S(=O)(=O)N3CCCCCC3)ccc21	.	7%
O=C(O)c1ccccc1-c1nc(-c2ccccc2)c(-c2ccccc2)[nH]1	6%	-4%
CC1CCN(C(=O)C(C)c2ccc([N+](=O)[O-])cc2)CC1 (configuration not stated)	-2%	4%
CNC(=O)c1nnn(Cc2ccccc2)c1NC(=O)C(F)(F)F	11%	-5%
COc1ccc2cc3cc(C(=O)NCc4cccnc4)oc3nc2c1	?	10%
CCOC(=O)COc1ccc2c(=O)c(-c3ccccc3)coc2c1	23%	12%
COC(=O)CN=C1OC(=O)N2C(=O)C3=C4[C@@H](C[C@H]5C(=O)N(c6ccccc6)C(=O)[C@H]5[C@H]4[C@@]12Cc1ccccc1)[C@H]1C(=O)N(c2ccccc2)C(=O)[C@H]1[C@H]3C	5%	-21%
O=C(OCc1ccccc1)N1CCc2ccccc21	-7%	0%
CS(=O)(=O)N1CCN(c2ccccc2NC(=O)c2cccnc2)CC1	-2%	1%
O=C(CSc1nnnn1Cc1ccccc1)Nc1ccc2c(c1)OCO2	9%	-3%
O=c1c(Cc2ccc(F)cc2)c(O)ccn1C1CC1	14%	16%
CC(=O)Nc1cc2c(cc1NC(=O)Cn1nc(-c3ccc4c(c3)OCCO4)ccc1=O)OCCO2	.	-16%
CCN(CC)C(C(=O)Nc1ccc2c(c1)OCO2)c1ccccc1 (configuration not stated)	-22%	-10%
CN(C)CCN(C(=O)c1ccc(S(=O)(=O)N2CCCC2)cc1)c1nc2ccc(Br)cc2s1	-9%	-18%
Cc1ccccc1-c1nc(CS(=O)CC(=O)NCc2ccccc2)c(C)o1 (configuration not stated)	3%	-11%
O=c1[nH]cnc2cc(-c3ccc(Br)cc3)sc12	3%	-8%
COc1ccc(/C=C/C(=O)OCC(=O)NCCNC(=O)COC(=O)/C=C/c2ccc(OC)cc2)cc1	0%	2%

Screening data as filed in PubChem BioAssay.

This is a subset, and most or all hits are left out here.
